Source: PubChem BioAssay
Mtb MbtI inh: MbtI salicylate synthase inhibition. 0.89% of 100,000 active. inhibition, %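 (about 17 µg/mL by stock and volumes)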. AID 493033. P9WFX0. purified MbtI enzyme, fluorescence intensity read-out;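 active = above 50% in both replicates, above 80% if mildly self-fluorescent; inactive = the rest, strongly fluorescent compounds included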;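 also: 0% = mean of negative and 100% = mean of positive controls; one replicate is shown; some compounds called inactive have numbers as strong as hits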
Target sequence (P9WFX0 whole entry, looked up): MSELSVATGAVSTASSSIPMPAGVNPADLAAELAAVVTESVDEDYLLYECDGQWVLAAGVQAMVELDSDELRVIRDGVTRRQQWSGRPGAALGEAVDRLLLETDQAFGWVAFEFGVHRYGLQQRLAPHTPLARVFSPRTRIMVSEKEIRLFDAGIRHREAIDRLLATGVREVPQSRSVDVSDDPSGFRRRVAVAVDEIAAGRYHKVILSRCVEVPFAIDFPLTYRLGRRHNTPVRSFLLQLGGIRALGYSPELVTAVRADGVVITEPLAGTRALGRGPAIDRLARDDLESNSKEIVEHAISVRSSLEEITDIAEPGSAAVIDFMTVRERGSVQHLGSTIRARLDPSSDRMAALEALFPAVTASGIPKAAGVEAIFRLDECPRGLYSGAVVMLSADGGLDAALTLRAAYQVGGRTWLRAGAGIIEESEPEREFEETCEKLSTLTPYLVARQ
MenB inh: Mtb MenB enzyme inhibition; MenB enzyme assay, absorbance read-out; some hits fall short of the stated cut; inhibition, %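 (about 12 µg/mL by stock and volumes)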; 0.43% of 100,000 active; AID 540299;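 active = mean of two replicates above 30%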;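 also: 0% = no compound and 100% = wells with inactive enzyme; the first replicate is given; strong numbers were not always called active; inactives centre near -10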
Target sequence (P9WNP5 whole entry, looked up): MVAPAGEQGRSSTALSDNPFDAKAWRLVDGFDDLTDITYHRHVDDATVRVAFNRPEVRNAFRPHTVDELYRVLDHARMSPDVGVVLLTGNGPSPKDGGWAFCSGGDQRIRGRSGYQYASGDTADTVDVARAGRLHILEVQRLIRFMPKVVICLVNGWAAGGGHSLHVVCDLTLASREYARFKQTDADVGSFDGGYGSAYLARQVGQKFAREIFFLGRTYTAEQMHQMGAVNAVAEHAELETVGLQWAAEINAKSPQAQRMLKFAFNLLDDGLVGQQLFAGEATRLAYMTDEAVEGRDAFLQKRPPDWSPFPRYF
PV pol inh: poliovirus RNA polymerase inhibition; P03300; poliovirus polymerase elongation, fluorescence polarization; stronger effect = lower value; % elongation, % (compound at 16.7 µg/mL); 0.66% of 150,000 active; AID 588519; in the data active = % elongation below about 90%; also: some results filed as inactive read as strong as hits
PV pol inh intensity: further read-out of PV pol inh, marked with its call; % elongation; measured here: total intensity read-out; formula for this scale not given here;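 total fluorescence in place of polarization; lower means less elongation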
Starred values were filed as active, the others as inactive; i = inactive; . = not tested or not shown.

SMILES	Mtb MbtI inh	MenB inh	PV pol inh	PV pol inh intensity
O=C(OCc1csc(Nc2ccccc2)n1)c1cc(NS(=O)(=O)c2cccs2)ccc1O	52	-13	103	110
CCn1c(=O)n(CC)c2cc(S(=O)(=O)NC(C)C)ccc21	-7	-26	103	103
COc1ccc(C(=O)NCC(=O)N2CCc3ccccc3C2)cc1	-2	3	95	98
CCn1c(=O)cc(O)c2ccccc21	-12	-101	.	.
O=C1CCCc2cc(S(=O)(=O)N3CCC(C(=O)N4CCOCC4)CC3)ccc2N1	-5	-26	101	102
O=C(O)CN1N=C(c2ccc(Cl)cc2)CCC1=O	4	0	100	106
CC(=O)Nc1cc2ccccc2cc1C(=O)O	22	2	101	98
CC(C(=O)NC(=O)NC1CCCCC1)N1CCN(S(=O)(=O)c2cc(Br)ccc2Br)CC1 (configuration not stated)	-5	-13	99	101
CCOc1ccc(C(=O)Nc2cccc(-c3ccc(N4CCOCC4)nn3)c2)cc1OCC	11	0	102	103
O=C(CSc1nc2ccccc2[nH]1)C1CC1	.	-11	107	113
CCOC(=O)C1=C(c2ccccc2)OC(N)=C(C#N)C1c1ccc(F)cc1 (configuration not stated)	.	4	104	107
CC(C)(C)C(=O)NC(Cc1c[nH]c2ccccc12)C(=O)O (configuration not stated)	5	-57	100	100
CCCN(CCC)C(=O)Cn1c(=O)n(CCC(=O)NCc2ccco2)c(=O)c2sccc21	-13	-2	102	102
c1ccc(CCN2CN=C(Nc3nc4ccccc4o3)NC2)cc1	-4	-17	102	103
COCc1c(C(=O)NCc2cccs2)oc2ccccc12	-14	-27	103	108
CC1CCC2(CC1)NC(=O)N(CN(C)Cc1cccs1)C2=O (configuration not stated)	10	0	.	.
O=C(Nc1ccccc1C(=O)OC1CCCCC1=O)c1ccco1 (configuration not stated)	-3	1	101	99
FC(F)(F)c1cccnc1SCc1ccc(Cl)cc1	-8	-9	106	109
Cc1ccc2c(c1)CCCN2CC(=O)N(c1ccccc1)C1CCCCC1	3	-13	102	98
COc1cc(C(=O)N[C@H](C(=O)O)C(C)C)cc(OC)c1OC	0	2	105	109
CCN1CCc2c(sc(N)c2C#N)C1	.	-7	107	177
O=c1c(CCc2ccccc2)nnc2c3ccccc3ncn12	14	6	100	102
CN1/C(=C\C=Nc2ccccc2N)C(C)(C)c2ccccc21	11	-43	133	183
CC1(C)Cc2ccccc2/C(=C/C(=O)N2CCOCC2)N1	-20	-19	102	103
C/C(=C/C(=O)O)C(=O)Nc1nc(-c2cccs2)cs1	72*	-10	.	.
CN(C)c1ccc(/C=N/OC(=O)NC2CCCCC2)cc1	2	-47	104	101
Cc1nnc2c3cc(-c4ccccc4)sc3ncn12	-4	7	100	101
Cn1c(=NC(=O)CSc2nnc(-c3ccccc3)o2)sc2ccccc21	-21	7	123	131
Cc1ccc(C(C(=O)NC2CCCC2)N(C(=O)Cn2nnc3ccccc32)c2cnc3ccccc3c2)o1 (configuration not stated)	0	-28	106	100
COC(=O)c1nsc(Cl)c1Cl	.	4	98	98
Cc1ccccc1-c1nc(CN2CCC(C(=O)NC3CCCCC3)CC2)c(C)o1	1	-11	101	104
CSC(=S)n1c(C)nc2ccccc21	6	.	94	96
NS(=O)(=O)c1ccc(NC(=O)CN2C(=O)SC(=C3CCCCC3)C2=O)cc1	7	-14	104	108
O=c1cc(O)c2sc3nc(-c4ccco4)cc(C(F)(F)F)c3c2[nH]1	35	-66	96	98
CC(=NC1CCCCC1)c1sc2ccccc2c1O	22	-200	102	106
CCC(=O)N(CCC1(c2ccccc2)CCOC(C)(C)C1)Cc1ccccc1F (configuration not stated)	-3	-22	102	101

Single records, as listed above.
`CSC(=S)n1c(C)nc2ccccc21` is entered as Mtb MbtI inh = 6; MenB inh = .; PV pol inh = 94; PV pol inh intensity = 96
`C/C(=C/C(=O)O)C(=O)Nc1nc(-c2cccs2)cs1` is entered as Mtb MbtI inh = 72*; MenB inh = -10; PV pol inh = .; PV pol inh intensity = .
`Cc1ccc(C(C(=O)NC2CCCC2)N(C(=O)Cn2nnc3ccccc32)c2cnc3ccccc3c2)o1` (configuration not stated) is entered as Mtb MbtI inh = 0; MenB inh = -28; PV pol inh = 106; PV pol inh intensity = 100

The list goes on:
SMILES	Mtb MbtI inh	MenB inh	PV pol inh	PV pol inh intensity
O=C(CNc1cc(Cl)ccc1Cl)N1CCCC1	5	.	99	99
CCCCOc1ccc(CN(C)C)cc1CN(C)C	1	-18	103	101
CC(=O)N(CCN(C)C)c1nc2cc3c(cc2s1)OCO3	15	-1	100	98
C/C(CC(C)C)=N\Nc1ccc(Cl)c(C(=O)O)c1	-2	-6	85	95
Cn1c(=O)c2ccccc2n2c(=S)sc(-c3ccccc3)c12	-10	-19	104	108
CC1=NCCNC(C)=C1N1CCOCC1	2	-6	109	112
Nc1ccccc1OCCOc1ccccc1N	-6	.	103	107
O=C(Nc1cccc(C(F)(F)F)c1)C1CCC(Cn2c(=O)[nH]c3ccsc3c2=O)CC1 (configuration not stated)	3	-31	104	93
NC(=S)N/N=C/c1cccc(C(F)(F)F)c1	18	-12	99	106
CC(CC(=O)OCc1ncc(-c2ccccc2)o1)c1ccccc1 (configuration not stated)	2	8	100	98
NC(=O)N1CCCC1	2	5	98	99
CCN(CC)C(=O)c1ccc(COc2ccccc2Cl)o1	.	0	101	108
Cc1cccc(C(=O)Nc2cccc(-c3ccc(N4CCN(C)CC4)nn3)c2)c1	21	-7	104	105
CC(Sc1nnc(N)s1)c1nc2ccccc2c(=O)[nH]1 (configuration not stated)	-3	-15	101	100
COc1ccc(CCNCc2cccn2-c2c(C(=O)O)cnn2-c2ccccc2)c(OC)c1	-9	2	102	100
CCC1(C)Cc2ccccc2-c2c1c(=O)n(-c1ccc(C)cc1)c1nnnn21 (configuration not stated)	-37	-20	101	102
Cc1ccccc1Nc1nc(N)nc(CSCC(=O)NC2CCCc3ccccc32)n1 (configuration not stated)	-15	-9	103	107
COc1ccc2oc(=O)c3c(c2c1)CC(C(F)(F)F)S3 (configuration not stated)	10	-13	103	106
COc1cccc(CN2CCC(C(=O)NC(C)C)CC2)c1	.	4	101	106
CCOC(=O)c1c(COC(=O)/C=C/c2ccc(C)o2)nc2ccccc2c1C	4	-22	101	106
Cc1nc2cc(-c3ccccc3)nn2c(C)c1Sc1nccc(-c2cccnc2)n1	23	-15	108	102
Cc1cccc(N=C2CNC(=O)NC2=O)c1	9	8	102	101
CN(C)c1nc(OCCNC(=O)COc2ccccc2Cl)nc(N(C)C)n1	-14	-6	100	104
CCC1CCCCN1S(=O)(=O)c1ccc(Cl)cc1 (configuration not stated)	.	-10	105	113

Continued (4 carried over from the part before).
SMILES	Mtb MbtI inh	MenB inh	PV pol inh	PV pol inh intensity
Cc1nc2cc(-c3ccccc3)nn2c(C)c1Sc1nccc(-c2cccnc2)n1	23	-15	108	102
Cc1cccc(N=C2CNC(=O)NC2=O)c1	9	8	102	101
CN(C)c1nc(OCCNC(=O)COc2ccccc2Cl)nc(N(C)C)n1	-14	-6	100	104
CCC1CCCCN1S(=O)(=O)c1ccc(Cl)cc1 (configuration not stated)	.	-10	105	113
CCn1c(SCC(=O)Nc2ccc(OC)cc2)nnc1C1CC1	-6	13	101	103
CCN(C(=O)Cc1c(C(=O)O)[nH]c2ccccc12)c1ccccc1	35	-14	101	101
O=c1[nH]c(O)c(N=Nc2ccc(S(=O)(=O)N3CCCCC3)cc2)c(=O)[nH]1	-3	11	100	101
CCOc1ccc2nc(N3CCCC3)sc2c1	4	-6	100	106
Cc1ccc(S(=O)(=O)NCCC(=O)N2CCN(Cc3ccccc3)CC2)cc1	-1	1	101	103
CC1CCC/C(=C/c2ccc(Cl)cc2)C1=O (configuration not stated)	0	-21	101	98
Cc1c(C)c(C)c(S(=O)(=O)/N=C/N(C)C)c(C)c1C	1	2	105	106
COC(=O)C(C)(C)ON1C(=O)c2ccccc2C1=O	-10	-4	103	100
CCOC(=O)c1cnc(S/C=C/C(=O)c2ccc(C)cc2)nc1N	12	-5	103	102
COc1cc(Cl)c(C)cc1NC(=O)CSc1nc2ccccc2[nH]1	0	.	102	99
CC(C)N(c1ccccc1)c1ccc(NC(=O)COC(=O)C2CC2)cc1	-7	.	101	103
Cc1nnc(SCC(=O)c2cc(C)n(-c3ccc4c(c3)OCO4)c2C)n(N)c1=O	19	1	106	102
COC(=O)C1Cc2ccccc2CN1Cc1c(C)n(C)n(-c2ccccc2)c1=O (configuration not stated)	27	0	102	101
N#Cc1c(-c2ccccc2)cc(-c2ccccc2)nc1N1CCOCC1	12	-58	102	102
O=C(NCc1ccco1)c1ccc(/C=C2\Oc3ccccc3N(Cc3ccccc3F)C2=O)cc1	78	-27	102	109
COc1ccc(OC)c(NC(=O)c2ccc(CSc3ncnc4nc[nH]c34)cc2)c1	-4	-32	99	103
C/C(Nc1ccc(Br)cc1)=C(/C#N)C(N)=O	-8	-72	101	103
CC1=C(C#N)C(c2cccc(O)c2)C2=C(CC(c3ccccc3)CC2=O)N1 (configuration not stated)	i	-10	99	102
CC1CN(C(=O)C(C)N(C)Cc2nc3ccccc3c(=O)[nH]2)CC(C)O1 (configuration not stated)	8	3	102	102
O=C(COc1nnc(SCCS(=O)(=O)c2ccc(F)cc2)n1C1CC1)c1ccc(F)cc1	-9	14	103	112
CCCn1c2ccc(C)cc2c2nnc(SCCN(CC)CC)nc21	13	-34	100	97
COc1ccc(N2C(=O)c3ccccc3NC23CCCC3)cc1	-46	-22	99	95
Cc1nc(C(F)(F)F)ccc1NC(=O)NCCNc1cccc(C(F)(F)F)n1	-21	2	104	91
Cc1[nH]n(-c2ccccc2)c(=O)c1C=Nc1ccc(O)cc1	12	-112	102	105
O=C(O)CN(CCc1ccccc1)CC(=O)O	-6	-19	103	109
CCC(SC1=NCCS1)C(=O)Nc1ccc(NC(C)=O)cc1 (configuration not stated)	-8	-32	101	98
CC1CCc2c(sc3ncn4c(=S)[nH]nc4c23)C1 (configuration not stated)	0	-43	100	98
CC(C)OC(=O)c1ccc(COC(=O)CNC(=O)c2ccco2)cc1	.	-17	108	101
CCC1OC(=O)[C@H](C)C(=O)[C@H](C)[C@@H](OC2O[C@H](C)C[C@H](N(C)C)[C@H]2O)[C@](C)(OC)C[C@@H](C)C(=O)[C@H](C)[C@H]2N(CCCCn3cnc(-c4cccnc4)c3)C(=O)OC12C (some centres not stated)	-8	-9	104	105
CC(C)(C)OC(=O)Nc1ccc(-c2ccn[nH]2)cc1	-2	-18	99	104
Cc1onc(-c2ccccc2)c1C(=O)Nc1cccc(C(F)(F)F)c1	-4	-56	102	92
COc1cc(C2N(Cc3ccccc3)CCCN2Cc2ccccc2)ccc1O	.	-10	105	110
O=C(CN1CCN(c2cccc(Cl)c2)CC1)Nc1nccs1	-3	-58	98	102
N#Cc1c(N)oc(-c2cccs2)c1-c1cccs1	-114	-10	107	116
C=CC1CN2CCC1CC2C(OC(=O)c1ccco1)c1ccnc2ccccc12 (configuration not stated)	-7	-13	101	104
COc1cccc(/C=C/C(=O)OCC(=O)NC2CCCCC2)c1	-41	.	101	106

In the list so far, two have bromine:
SMILES	Mtb MbtI inh	MenB inh	PV pol inh	PV pol inh intensity
CC(C(=O)NC(=O)NC1CCCCC1)N1CCN(S(=O)(=O)c2cc(Br)ccc2Br)CC1 (configuration not stated)	-5	-13	99	101
C/C(Nc1ccc(Br)cc1)=C(/C#N)C(N)=O	-8	-72	101	103

(more compounds)
SMILES	Mtb MbtI inh	MenB inh	PV pol inh	PV pol inh intensity
CS(=O)(=O)c1ncc(Cl)c(C(=O)NCc2ccccc2)n1	-18	-45	103	103
O=S(=O)(c1ccc(F)c(F)c1)N(c1ccc2c(c1)OCO2)S(=O)(=O)c1ccc(F)c(F)c1	21	-32	95	92
CCc1ccc(NC(=O)CN2C(=O)CSC2=O)cc1	3	3	101	101
CCOC(=O)c1c(C)[n+]([O-])c2ccc3c(non3O)c12	11	-21	102	100
O=C(NNc1ccccc1)c1cc(-c2cccs2)nn1-c1ccccc1	15	-28	101	97
CCC(Sc1nnc(-c2c[nH]c3ccccc23)n1C)C(=O)OC (configuration not stated)	3	-20	105	104
Nc1nc(-c2ccc(F)cc2)cc(C(F)(F)F)n1	-18	-22	103	106
CN1CCc2c(sc3[nH]c(=S)n(-c4ccccc4)c(=O)c23)C1	137	-91	103	103
Cn1c(CNc2cccc(Cl)c2)nnc1SCC(=O)OC1CCCCC1	4	28	101	101
Cc1cccc(NC(=O)CN(c2cccc(C(F)(F)F)c2)S(C)(=O)=O)c1	-22	-22	102	102
Clc1ccccc1C1SCC2Nc3ccccc3CN21 (configuration not stated)	-5	71*	105	106
CC1SC(c2ccc(C(C)C)cc2)N(C)C1=O (configuration not stated)	39	-24	102	103
O=C(CCCOc1ccc(Cl)cc1Cl)NCc1ccncc1	.	-14	113	116
O=C1NC(c2ccco2)Nc2sc3c(c21)CCN(Cc1ccccc1)C3 (configuration not stated)	10	-9	104	114
NC(=O)Nc1ccc(C(=O)Nc2ccc3c(c2)CCC3)cc1	25	-5	104	108
COc1ccc(C2CC(=O)c3cnc(NCCc4ccccc4)nc3C2)cc1 (configuration not stated)	12	-28	101	93
Cc1cc(OC(C)C(=O)N(Cc2ccco2)Cc2ccco2)ccc1Cl (configuration not stated)	4	-31	100	101
COc1ccc(C(O)c2nccc3cc(OC)c(OC)cc23)cc1OC (configuration not stated)	7	-24	100	101

Random draw from the library; 1.8% or so of the library scored in one or more.
